RE007 growth inh – less growth of the S. pombe RE007 Vpr strain; AID 651644; S. pombe RE007 Vpr strain, BacTiter-Glo ATP luminescence, 24 h; control for the full effect not named in the record; Potency, µM (doses to about 92.2 µM), for the others: at the top dose activity change, negative = less growth; 360,000 tested, 0.21% active; active = well fitted falling curve with a large enough effect; inconclusive = small, poorly fitted or top-dose-only effect; inactive = no such curve, though single readings can be large or run the other way;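 also: % is scaled to controls: 0 for no effect and ±100 for the full control effect; nearly all actives have a fitted effect of over 50% in size; the assay follows cell death caused by Vpr and the record does not say whether a fall means rescue or toxicity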
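Fission yeast strain RE007, carrying one chromosomally integrated HIV-1 vpr copy, was seeded at OD 0.01 in PMG+AL medium with 23 nL pinned compound. After 24 h at 30 °C and 99% humidity, viability was read by BacTiter-Glo luminescence.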
LASV entry inh – blocks Lassa virus binding to or entry into cells. Potency, µM (series often up to 37.9 µM), for inactives: at the top dose activity change, negative = inhibition, usual class: inhibitors. Lassa virus pseudotype entry inhibition, cell reporter; control for the full effect not named in the record. 300,000 tested, 1.2% active; active means well fitted inhibition curve with a large enough effect; inconclusive means small, poorly fitted or top-dose-only effect, or effect the other way; inactive means flat fitted curve, though single readings scatter; tested in HEK293 cells; also: % is scaled to controls: 0 for no effect and ±100 for the full control effect; nearly all actives have a fitted effect of over 50% in size; luciferase read-out
Cruzain inh noDet – cruzain (T. cruzi) inhibition without detergent; purified cruzain, Z-FR-AMC fluorescence, no detergent; Potency, µM, inactives show max response, negative = inhibition, hits mostly inhibitors; 200,000 tested, 2.3% active; P25779; AID 1476;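 also: plate controls were enzyme without inhibitor for no effect and buffer without enzyme for full effect; nearly all actives have a fitted effect of over 40% in size; top concentration of the series not given in the record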
Target sequence (P25779 123-467 limits assumed): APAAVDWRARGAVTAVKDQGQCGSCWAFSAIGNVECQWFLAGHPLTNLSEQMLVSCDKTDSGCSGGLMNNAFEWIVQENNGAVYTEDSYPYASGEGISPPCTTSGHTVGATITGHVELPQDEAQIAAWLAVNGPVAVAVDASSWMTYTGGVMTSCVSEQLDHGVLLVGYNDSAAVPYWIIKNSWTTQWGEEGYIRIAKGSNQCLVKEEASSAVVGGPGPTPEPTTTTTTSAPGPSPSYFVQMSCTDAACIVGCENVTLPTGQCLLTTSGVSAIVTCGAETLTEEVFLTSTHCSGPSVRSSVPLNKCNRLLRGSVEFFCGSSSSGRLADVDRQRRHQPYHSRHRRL
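Purified cruzain at 1.5 nM, pre-incubated 15 min with compound at room temperature in 100 mM sodium acetate pH 5.5, 5 mM DTT, 0.00005% Triton X-100. Reaction started with 2 uM Z-FR-AMC; AMC fluorescence increase over 60 s gives rate.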
StopGo reporter – lowers the luciferase signal of an FMDV 2A StopGo reporter. human cells with a luciferase reporter of 2A StopGo recoding; control for the full effect not named in the record. Potency, µM (highest dose often 57.9 µM), without a hit: at the highest dose signal change, negative = less light. 410,000 tested, 1.2% active; active = well fitted falling curve with a large enough effect; inconclusive = small, poorly fitted or top-dose-only effect; inactive = no such curve, though single readings can be large or run the other way; tested in HEK293T cells; also: % is scaled to controls: 0 for no effect and ±100 for the full control effect; nearly all actives have a fitted effect of over 45% in size; luciferase light after 4 h
SARS PLpro yeast – inhibitors of SARS-CoV papain-like protease in yeast; S. cerevisiae expressing SARS-CoV PLpro, growth rescue; control for the full effect not named in the record; Potency, µM (doses to about 32.9 µM), for inactives: at the top dose activity, positive = growth rescue; 330,000 tested, 0.19% active; active means well fitted rising curve with a large enough effect; inconclusive means small, poorly fitted or top-dose-only effect; inactive means no such curve, though single readings can be large or run the other way; also: 0% is about no effect; nearly all actives have a fitted effect of over 55% in size; growth read by luminescence after 48 h
NS1 inh – influenza NS1 inhibition. AID 2326. 270,000 tested, 0.4% active. S. cerevisiae slowed by influenza A NS1, growth recovery by OD600. Potency, µM (series often up to 46.1 µM), for inactives: at the highest dose activity, positive = more growth; active means well fitted rising curve with a large enough effect; inconclusive means small, poorly fitted or top-dose-only effect; inactive means no such curve, though single readings can be large or run the other way; also: nearly all actives have a fitted effect of over 50% in size
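A cell-based growth assay was used: compounds that relieve NS1-induced slow growth of budding yeast raise OD600. Assay medium was yeast nitrogen base with ammonium sulphate and -URA supplement, pH 6.0, with 2% galactose.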
MARV entry inh – inhibitors of Marburg virus binding or cell entry; AID 540276; Potency, µM (series often up to 37.8 µM), for the others: at the highest dose activity change, negative = inhibition, hits mostly inhibitors; 300,000 tested, 1.8% active; Marburg virus pseudotyped entry inhibition, cell reporter; control for the full effect not named in the record; about a third of the inactives were read at about 46 µM; active = well fitted inhibition curve with a large enough effect; inconclusive = small, poorly fitted or top-dose-only effect, or effect the other way; inactive = flat fitted curve, though single readings scatter; tested in HEK293 cells; about a fifth of its hits are not listed in these tables; also: % is scaled to controls: 0 for no effect and ±100 for the full control effect; luciferase read-out
Cruzain Triton – cruzain (T. cruzi) inhibition with detergent; purified cruzain, Z-FR-AMC fluorescence, 0.01% Triton; Potency, µM, without a hit: max response, negative = inhibition, most hits filed as inhibitors; 200,000 tested, 0.43% active; AID 1478;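 also: plate controls were neutral wells for no effect and buffer without enzyme for full effect; nearly all actives have a fitted effect of over 40% in size; top concentration of the series not given in the record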
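Detergent-containing arm of a paired screen for aggregation-based inhibition: 0.01% Triton X-100 present. Cruzain at 1.5 nM cleaved 2 uM Z-FR-AMC at pH 5.5 with 5 mM DTT; AMC fluorescence gain over 60 s measured activity.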
* hit, by the source's call; ? = inconclusive; · = not tested or not shown; & = joins results of further samples; [ ] = another dose, or the depositor's remark. Unless noted, calls follow the shape of the dose curve; as a rule, active = well fitted curve in the direction sought with a large enough effect; inconclusive = small, poorly fitted or top-dose-only effect, or another doubt; inactive = no such curve, though single readings can be large; an effect the other way counts as inactive or inconclusive. Potency is read from the fitted curve at half-maximal effect.

Start of the data: the first two entries (preview)
molecule	RE007 growth inh	LASV entry inh	Cruzain inh noDet	StopGo reporter	SARS PLpro yeast	NS1 inh	MARV entry inh	Cruzain Triton
CNC(=O)C1(C)C=CCN1C(=O)c1ccccc1 (stereo not given)	-4%	5%	3%&-15%	25%	17%	28%	-28%	1.2%&1.6%
S=c1nc(-c2cccc(Cl)c2)[nH][nH]1	-17%	22%[46.1 µM]	·	3%	-5%	·	-3%[46.1 µM]	·

All compounds of this part, from the start:
molecule	RE007 growth inh	LASV entry inh	Cruzain inh noDet	StopGo reporter	SARS PLpro yeast	NS1 inh	MARV entry inh	Cruzain Triton
CNC(=O)C1(C)C=CCN1C(=O)c1ccccc1 (stereo not given)	-4%	5%	3%&-15%	25%	17%	28%	-28%	1.2%&1.6%
S=c1nc(-c2cccc(Cl)c2)[nH][nH]1	-17%	22%[46.1 µM]	·	3%	-5%	·	-3%[46.1 µM]	·
Nc1nc(-c2ccco2)nn1C(=O)c1cccnc1	6%	12%	-8%	30%	-5%	-18%	16%	0.7%
COc1ccccc1CNC(=O)Cn1c(=O)c2cccn2c2cccnc21	3%	·	·	4%	-2%	-12%	·	·
COc1ccc(CNC(=O)C(C)n2ccc3cc(S(=O)(=O)N4CCCC4)ccc32)cc1OC (stereo not given)	·	2%[46.1 µM]	27%	-22%	·	·	·	-2.2%
Cc1cccc(/C=N/n2c(C)nnc2C)c1	28%	-8%	-8%	-19%	5%	-4%	?	-0.1%
CCc1cc(=O)[nH]c(SCCc2ccccc2)n1	-8%	·	·	29%	-1%	-9%	·	·
Cc1cccc(N=c2oc3cc(O)ccc3cc2C(N)=O)c1	-12%	-12%	?	4%	-15%	-79%	?	-23%
Cc1cccc(N2C(=O)N(CC(=O)C(C)(C)C)c3ccccc3S2(=O)=O)c1C	·	-15%[46.1 µM]	28%	-27%	·	·	·	-2.2%
COc1ccc(-c2cc(C(C)=O)c(C)n2CCC(=O)NCc2ccc(F)cc2)cc1	·	-3%[46.1 µM]	-1%	-7%	·	·	·	-2.5%
OC(CN1CCCCC1)c1c[nH]c2ccccc12 (stereo not given)	-1%	·	·	-25%	2%	2%	·	·
N#CCCN(C(=S)NC(=O)c1ccco1)c1ccccc1F	-25%	14%	·	0%	0%	·	17%[46.1 µM]	·
COc1ccc(-n2c(=S)[nH]c3cc(C(=O)Nc4ccccc4OC)ccc3c2=O)c(OC)c1	0%	6.3µM*	·	?	7%	11%	-28%[46.1 µM]	·
CCc1ccccc1NS(=O)(=O)c1ccc2c(c1)OCC(C(=O)N1CCCC1)O2 (stereo not given)	·	-2%[46.1 µM]	14%	-8%	·	·	·	-2.6%
CC12C(=O)N(c3ccccc3C(=O)O)C(=O)C1C1C=CC2C1 (stereo not given)	6%	-7%	8%	-14%	-3%	5%	19%	-0.1%
CN(C)CCNC(=S)Nc1ccccc1C(C)(C)C	-5%	1%	·	-11%	1%	1%	10%[46.1 µM]	·
O=c1[nH]n2c(C(F)(F)F)cc(C3CC3)nc2c1N=Nc1ccccc1	-16%	5%[46.1 µM]	·	-4%	0%	·	-8%[46.1 µM]	·
CCOC(=O)c1cnc2c(-c3cccc(Br)c3)cnn2c1C	9%	?	-7%	31%[activator]	4%	-7%	?	-5.9%
Cc1cccc(N2C(=O)C3CCCN3C2=S)c1 (stereo not given)	1%	·	·	-27%	4%	3%	·	·
C=CCc1cccc(/C=N/c2ncn[nH]2)c1O	2%	3%	-1%	-4%	-1%	8%	16%	4.9%
CC(Cn1nnc2ccccc21)C(=O)O (stereo not given)	1%	-8%[46.1 µM]	·	-13%	0%	1%	26%[46.1 µM]	·
COc1ccc(OCc2nn[nH]n2)cc1	3%	·	·	12%	16%	12%	·	·
COc1ccccc1NC(=O)c1sc2nc(C)c(C(=O)Nc3ccc(Cl)cc3)c(-c3ccc(Br)cc3)c2c1N	·	-3%[46.1 µM]	-18%	-18%	·	·	?	0.2%
CCOC(=O)C(C)Oc1ccccc1C1NC(=O)NC(C)=C1C(=O)Nc1ccc(C)c(C)c1 (stereo not given)	13%	-19%	14%	-21%	1%	-4%	-3%	3.3%
NC(=O)C1CCN(Cc2nc3ccccc3c(=O)[nH]2)CC1	10%	4%	-4%	3%	4%	-4%	25%	5.7%
O=C(CCn1cccn1)Nc1ccc(-c2ccno2)cc1	15%	·	·	37%[activator]	1%	-6%	·	·
O=C(Nc1ccccc1N1CCOCC1)c1ccccc1NS(=O)(=O)c1ccc(F)cc1	7%	16%	-5%	-22%	-6%	1%	14%	3.4%
C[C@]1(O)CC[C@H]2[C@@H]3CCC4=CC(=O)CC[C@]4(C)[C@@]3(F)[C@@H](O)C[C@@]21C	13%	·	5%	-1%	·	·	·	2.0%
Cc1ccc(-c2c3c(=O)n(C)c(=O)n(C)c3c3c(C(F)(F)F)nc4ccccc4n23)cc1	·	-5%[46.1 µM]	?	-4%	·	·	9%[46.1 µM]	-0.7%
CC(C)(C)C(=O)C1=C(O)C(=O)N(c2ccccc2)C1c1ccccc1 (stereo not given)	2%	·	·	-13%	?	-35%	·	·
CN(CC(=O)Nc1ccncc1)S(=O)(=O)c1ccc(Br)cc1	-6%	-15%	-2%	?	7%	3%	?	3.2%
CCCc1nnc(NC(=O)Cc2coc3ccc(C)cc23)s1	·	1%[46.1 µM]	-8%	-17%	·	·	?	-2.2%
O=C(CCNC(=O)c1ccc(Br)cc1)NCC1COc2ccccc2O1 (stereo not given)	21%	0%	·	36%[activator]	7%	-27%	0%	·
Nc1cccnc1Sc1cc(Cl)cc(Cl)c1	-9%	6%	-12%	-8%	-8%	-9%	-29%	3.1%
CC1(C)CN(C(=S)Nc2ccc(F)cc2F)C1=O	10%	·	·	15%	1%	5%	·	·
CCN(CC)S(=O)(=O)c1ccc(N2CCN(C)CC2)c(NC(=O)Nc2ccc(C)cc2)c1	-2%	28%	·	14%	2%	-4%	?	·

Part of the list above, set out differently.
mol: O=C(CCn1cccn1)Nc1ccc(-c2ccno2)cc1
  RE007 growth inh = 15%	LASV entry inh = ·	Cruzain inh noDet = ·	StopGo reporter = 37%[activator]	SARS PLpro yeast = 1%	NS1 inh = -6%	MARV entry inh = ·	Cruzain Triton = ·
mol: O=C(Nc1ccccc1N1CCOCC1)c1ccccc1NS(=O)(=O)c1ccc(F)cc1
  RE007 growth inh = 7%	LASV entry inh = 16%	Cruzain inh noDet = -5%	StopGo reporter = -22%	SARS PLpro yeast = -6%	NS1 inh = 1%	MARV entry inh = 14%	Cruzain Triton = 3.4%

The listing continues:
molecule	RE007 growth inh	LASV entry inh	Cruzain inh noDet	StopGo reporter	SARS PLpro yeast	NS1 inh	MARV entry inh	Cruzain Triton
CCCCOc1ccc(S(=O)(=O)Nc2ccc(-c3ccc(N4CCCCC4)nn3)cc2)cc1	·	7%[46.1 µM]	32µM*	22%	·	·	·	-4.7%
COc1ccc(CNc2ccc(Br)cc2)cc1	-7%	·	·	51%[activator]	-3%	1%	·	·
CSc1nc(N)c2c(C)c(C)sc2n1	4%	7%	-2%	0%	-2%	2%	-14%	-3.9%
CC(C)(C)c1ccccc1NC(=O)Cn1c(=O)cnc2ccccc21	14%	2%	-11%	21%	9%	6%	10%[46.1 µM]	-0.5%
COc1cc(C)nc(Oc2ccc(=O)n(C)n2)n1	21%	-4%	9%	10%	2%	4%[9.22 µM]	17%&17%	-0.9%
COc1ccc(C2=CC(c3sccc3C)n3nnnc3N2)cc1 (stereo not given)	-20%	17%	-8%	25%	-2%	8%	?	-11%
CC(C)C[C@@H](COCc1cccc(Cl)c1)N1CCN(C(=O)c2cccc(C(F)(F)F)c2)CCC1=O	4%	·	?	-28%	·	·	·	-1.9%
Cc1ccc(C(=O)N/C(=C/c2ccco2)C(=O)N2CCC(C)CC2)cc1	1%	·	·	14%	13%	9%	27%[46.1 µM]	·
COc1ccc(NC(=O)CCC(=O)N(Cc2ccc(OC)c(OC)c2)c2nccs2)c(OC)c1	-15%	?	·	-7%	1%	-3%	?	·
COc1ccc(/C=C/C(=O)Nc2ccc3nc(N4CCCCC4)cc(C)c3c2)cc1OC	·	-23%[46.1 µM]	-2%	?	·	·	?	-19%
Cc1cc(C)nc(NC(=O)c2cccc([N+](=O)[O-])c2C)n1	9%	-5%	1%	-9%	-3%	?	?	1.3%
COc1ccc(CN(C(=O)/C=C/c2ccco2)C2CCS(=O)(=O)C2)cc1 (stereo not given)	2%	16%	·	10%	0%	2%	?	·
CCSc1nnc(N(CCC(=O)O)CCC(=O)O)s1	28%	?	-5%	-10%	?	12%	-1%&-1%[46.1 µM]	-8.6%
COC(=O)c1ccccc1NC(=O)c1cnc2sc(N3CCOCC3)nn2c1=O	·	21%[46.1 µM]	-11%	-16%	·	·	·	-1.7%
CCCc1ccc(-c2c(C)sc(NC(=O)c3ccnn3C)c2C#N)cc1	-2%	?	16%	16µM*	1%	-3%	?	-15%
CC1CCCN(S(=O)(=O)c2ccc3c(c2)C(C)(C)C(=O)N3C)C1 (stereo not given)	-18%	·	·	-7%	7%	-3%	·	·
CCc1cccc(C)c1NC(=O)COC(=O)CSCc1ccccc1	2%	-5%	·	-6%	-1%	·	-6%	·
O=C(Nc1cc(S(=O)(=O)N2CCOCC2)ccc1N1CCOCC1)C1CCCO1 (stereo not given)	5%	·	·	-12%	-4%	-2%	·	·
Cc1ccc(CSCC(=O)Nc2ccccc2F)cc1	-19%	-25%[46.1 µM]	·	6%	0%	·	29%[46.1 µM]	·
